# Screens (PubChem)
# SARS PLP yeast = inhibitors of SARS-CoV papain-like protease in yeast. Potency, µM (highest dose often 32.9 µM), for inactives: at the top dose activity, positive = growth rescue. S. cerevisiae expressing SARS-CoV PLpro, growth rescue; control for the full effect not named in the record. 330,000 tested, 0.19% active; active means well fitted rising curve with a large enough effect; inconclusive means small, poorly fitted or top-dose-only effect; inactive means no such curve, though single readings can be large or run the other way; note: 0% is about no effect; nearly all actives have a fitted effect of over 55% in size; growth read by luminescence after 48 h
# RE007 growth inh = less growth of the S. pombe RE007 Vpr strain | S. pombe RE007 Vpr strain, BacTiter-Glo ATP luminescence, 24 h; control for the full effect not named in the record | Potency, µM (top dose mostly 92.2 µM), without a hit: at the highest dose activity change, negative = less growth | 360,000 tested, 0.21% active; active = well fitted falling curve with a large enough effect; inconclusive = small, poorly fitted or top-dose-only effect; inactive = no such curve, though single readings can be large or run the other way;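 note: % is set by controls: 0 for no effect and ±100 for the full control effect; nearly all actives have a fitted effect of over 50% in size; the assay follows cell death caused by Vpr and the record does not say whether a fall means rescue or toxicity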
#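 Fission yeast RE007 carrying one integrated HIV-1 vpr copy, seeded at OD 0.01 in PMG+AL medium with 23 nL pinned compound. Grown 24 h at 30 degrees; viability read by BacTiter-Glo luminescence after 5 min.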
# MARV entry inh = Marburg virus entry inhibition. Marburg virus pseudotyped entry inhibition, cell reporter; control for the full effect not named in the record; about a third of the inactives were read at about 46 µM. Potency, µM (highest dose often 37.8 µM), inactives show top-dose activity change, negative = inhibition, actives largely listed as inhibitors. 300,000 tested, 1.8% active; active = well fitted inhibition curve with a large enough effect; inconclusive = small, poorly fitted or top-dose-only effect, or effect the other way; inactive = flat fitted curve, though single readings scatter; tested in HEK293 cells; about a fifth of its hits are not listed in these tables; note: % is set by controls: 0 for no effect and ±100 for the full control effect; luciferase read-out
# Cruzain inh noDet = cruzain (T. cruzi) inhibition without detergent | P25779 | purified cruzain, Z-FR-AMC fluorescence, no detergent | Potency, µM, for inactives: max response, negative = inhibition, actives largely listed as inhibitors | 200,000 tested, 2.3% active | AID 1476;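 note: plate controls were enzyme without inhibitor for no effect and buffer without enzyme for full effect; nearly all actives have a fitted effect of over 40% in size; top concentration of the series not given in the record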
# Target sequence (P25779 123-467 limits assumed): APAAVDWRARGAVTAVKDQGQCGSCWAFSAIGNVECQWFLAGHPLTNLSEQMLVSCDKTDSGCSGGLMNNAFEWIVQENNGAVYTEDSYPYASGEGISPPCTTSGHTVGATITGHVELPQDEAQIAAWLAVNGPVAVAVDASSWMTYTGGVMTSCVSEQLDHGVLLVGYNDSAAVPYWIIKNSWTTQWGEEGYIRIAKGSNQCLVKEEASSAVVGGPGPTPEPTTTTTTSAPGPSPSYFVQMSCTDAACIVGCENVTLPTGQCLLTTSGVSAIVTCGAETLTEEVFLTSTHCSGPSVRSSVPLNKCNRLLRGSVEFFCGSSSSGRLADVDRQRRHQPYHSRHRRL
#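 Detergent-free condition (0.00005% Triton X-100) in acetate buffer pH 5.5 with DTT. 1.5 nM enzyme and compound were pre-mixed 15 min, then 2 uM Z-FR-AMC substrate added; reaction progress from fluorescence change between first and third reads (60 s).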
# Cruzain Triton = inhibitors of Trypanosoma cruzi cruzain with detergent. purified cruzain, Z-FR-AMC fluorescence, 0.01% Triton. AID 1478. Potency, µM, without a hit: max response, negative = inhibition, most hits filed as inhibitors. P25779. 200,000 tested, 0.43% active;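 note: plate controls were neutral wells for no effect and buffer without enzyme for full effect; nearly all actives have a fitted effect of over 40% in size; top concentration of the series not given in the record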
#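 Read-out: AMC fluorescence (360 nm excitation, 450 nm emission), four reads over 2 min, first-to-third difference used. Conditions: cruzain 1.5 nM, Z-FR-AMC 2 uM, pH 5.5 acetate, 5 mM DTT, 0.01% Triton X-100.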
# NS1 function inh = inhibitors of influenza NS1 protein function | S. cerevisiae slowed by influenza A NS1, growth recovery by OD600 | Potency, µM (titrated, usually from 46.1 µM), for inactives: top-dose activity, positive = more growth | 270,000 tested, 0.4% active; active means well fitted rising curve with a large enough effect; inconclusive means small, poorly fitted or top-dose-only effect; inactive means no such curve, though single readings can be large or run the other way; note: nearly all actives have a fitted effect of over 50% in size
#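 A cell-based growth assay was used: compounds that relieve NS1-induced slow growth of budding yeast raise OD600. Assay medium was yeast nitrogen base with ammonium sulphate and -URA supplement, pH 6.0, with 2% galactose.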
# StopGo reporter = lowers the luciferase signal of an FMDV 2A StopGo reporter; human cells with a luciferase reporter of 2A StopGo recoding; control for the full effect not named in the record; Potency, µM (doses to about 57.9 µM), inactives show at the top dose signal change, negative = less light; 410,000 tested, 1.2% active; active = well fitted falling curve with a large enough effect; inconclusive = small, poorly fitted or top-dose-only effect; inactive = no such curve, though single readings can be large or run the other way; tested in HEK293T cells; note: % is set by controls: 0 for no effect and ±100 for the full control effect; nearly all actives have a fitted effect of over 45% in size; luciferase light after 4 h
# Lassa entry inh = inhibitors of Lassa virus binding or cell entry. Lassa virus pseudotype entry inhibition, cell reporter; control for the full effect not named in the record. Potency, µM (doses to about 37.9 µM), for the others: at the top dose activity change, negative = inhibition, hits mostly inhibitors. AID 540256. 300,000 tested, 1.2% active; active means well fitted inhibition curve with a large enough effect; inconclusive means small, poorly fitted or top-dose-only effect, or effect the other way; inactive means flat fitted curve, though single readings scatter; tested in HEK293 cells; note: % is set by controls: 0 for no effect and ±100 for the full control effect; nearly all actives have a fitted effect of over 50% in size; luciferase read-out
# * = called active by the depositor; u = inconclusive; x = not tested or not shown; [ ] = another dose, or the depositor's remark. Unless noted, calls come from the whole dose curve; as a rule, active = well fitted curve in the direction sought with a large enough effect; inconclusive = small, poorly fitted or top-dose-only effect, or another doubt; inactive = no such curve, though single readings can be large; an effect the other way counts as inactive or inconclusive. Potency is the fitted concentration of half-maximal effect.
SMILES,SARS PLP yeast,RE007 growth inh,MARV entry inh,Cruzain inh noDet,Cruzain Triton,NS1 function inh,StopGo reporter,Lassa entry inh
Cc1ccccc1-c1noc(-c2ccc(N3CCCC3)c([N+](=O)[O-])c2)n1,x,x,5%[46.1 µM],-10%,-3.8%,x,-32%,11%[46.1 µM]
Cc1cc(C(C)(C)C)ccc1OCCOCCN1CCCC1,-9%,-18%,8.2µM*,-5%,-0.6%,-2%,-12%,u
NC(=O)c1c(NC(=O)C(=O)N2CCOCC2)sc2c1CCCC2,0%,-1%,x,x,x,2%,-1%,x
Nc1nnc(CCOc2ccccc2Cl)s1,-10%,-7%,u,0%,-1.0%,-12%,21%,-1%
COc1cc(C)nc(N2CCCC(C(=O)Nc3cc(Cl)ccc3OC)C2)n1 (configuration not stated),0%,3%,u,9%,-1.0%,2%,-16%,-8%
CC1(C)CC(=O)/C(=C(\O)c2ccccc2)C(=NCCc2ccccc2)C1,-2%,20%,4%,1%,-5.8%,-18%,-3%,2%
C=CCNC(=O)/C=C/c1ccc(C(C)C)cc1,-27%,5%,-28%,13%,-2.6%,11%,70%[activator],u
COc1ccc(NC(=O)CSc2c(C)nn(-c3nnc(C)c(=O)[nH]3)c2C)cc1,-2%,8%,1%,-2%,2.2%,1%,-3%,22%
CC(=O)NCCC(=O)Nc1ncc(S(=O)(=O)c2ccc([N+](=O)[O-])cc2)s1,3%,14%,5%,x,x,x,-18%,8%
CCOC(=O)CC1C(=O)NCCN1C(=O)c1cc2c(=O)n3cccc(C)c3nc2s1 (configuration not stated),-3%,-12%,1%,8%,-19%,-1%,-21%,x
Cc1nn(Cc2ccc(Cl)cc2Cl)c(Cl)c1/C=N/NC(=O)CNc1cccc(C(F)(F)F)c1,2%,x,2%,u,-1.2%,-4%,x,x
O=C(CS(=O)(=O)c1ccccc1)Nc1nnc(C(F)(F)F)s1,0%,-8%,-8%[46.1 µM],x,x,18%,3%,0%

# 7 neighbouring records from above, for reference:
SMILES,SARS PLP yeast,RE007 growth inh,MARV entry inh,Cruzain inh noDet,Cruzain Triton,NS1 function inh,StopGo reporter,Lassa entry inh
NC(=O)c1c(NC(=O)C(=O)N2CCOCC2)sc2c1CCCC2,0%,-1%,x,x,x,2%,-1%,x
Nc1nnc(CCOc2ccccc2Cl)s1,-10%,-7%,u,0%,-1.0%,-12%,21%,-1%
COc1cc(C)nc(N2CCCC(C(=O)Nc3cc(Cl)ccc3OC)C2)n1 (configuration not stated),0%,3%,u,9%,-1.0%,2%,-16%,-8%
CC1(C)CC(=O)/C(=C(\O)c2ccccc2)C(=NCCc2ccccc2)C1,-2%,20%,4%,1%,-5.8%,-18%,-3%,2%
C=CCNC(=O)/C=C/c1ccc(C(C)C)cc1,-27%,5%,-28%,13%,-2.6%,11%,70%[activator],u
COc1ccc(NC(=O)CSc2c(C)nn(-c3nnc(C)c(=O)[nH]3)c2C)cc1,-2%,8%,1%,-2%,2.2%,1%,-3%,22%
CC(=O)NCCC(=O)Nc1ncc(S(=O)(=O)c2ccc([N+](=O)[O-])cc2)s1,3%,14%,5%,x,x,x,-18%,8%

# Carrying on:
SMILES,SARS PLP yeast,RE007 growth inh,MARV entry inh,Cruzain inh noDet,Cruzain Triton,NS1 function inh,StopGo reporter,Lassa entry inh
CCN(c1ccccc1)S(=O)(=O)c1ccc(F)cc1C,-2%,5%,-23%[46.1 µM],16%,-2.3%,-33%,-10%,-9%
COc1cccc(-c2cn3nc(C)c(C)nc3n2)c1,4%,u,u,-9%,-1.7%,-4%,-1%,u
CCN(CC)C(=O)c1cccc(-c2ccc(OC)cc2)c1,-13%,-14%[3.69 µM],-8%,14%,7.0%,-39%,-18%,13%
O=C(N/C(=C/c1ccco1)C(=O)N1CCCCCC1)c1cccs1,-5%,9%,-40%,-20%,-1.5%,25%,13%,u
COc1ccc(Cl)cc1NC(=O)CN1CCC(n2nnc3ccccc32)CC1,-4%,18%,0%,2%,-0.4%,-17%,-9%,2%
O=C(c1cc(-c2cccs2)nc2ccccc12)N1CCN(c2ccccc2O)CC1,-17%,-1%,u,x,x,x,-1%,u
CCOc1cc(C(C(=O)NCC2CCCO2)N(C(=O)Cn2nnc3ccccc32)c2ccc(OC)c(OC)c2)ccc1O (configuration not stated),1%,-4%,-4%[46.1 µM],x,x,-1%,0%,x
COc1cnn(-c2ccccc2)c(=O)c1SCc1ccc(Cl)cc1Cl,-1%,12%,-13%,1%,-6.1%,-15%,-25%,0%
COc1cccc(N2CCN(C(c3ccccn3)c3nnnn3C(C)(C)C)CC2)c1 (configuration not stated),-2%,4%,5%,-1%,-1.1%,-3%,6%,-3%
CCc1nc(SCc2ccccn2)[nH]c(=O)c1C,0%,19%,4%[46.1 µM],x,x,3%,10%,-2%
Cc1cc(C)cc(-n2ccnc(NCCc3ccccc3)c2=O)c1,x,x,x,-5%,-0.9%,x,19%,u
Cc1nn(C(C)(C)C)c(C)c1/C=N/OC(=O)Nc1ccc(Cl)cc1,-16%,-12%,u,x,x,-61%,5.6µM*,x
CCc1ccccc1NC(=O)CN(C)C(=O)CSc1nc2cc(Cl)ccc2s1,23%,6%,14%,15%,-3.0%,15%,-17%,-3%
COC(=O)C(CC(C)C)NC(=O)CNC(=O)c1ccccc1C (configuration not stated),1%,12%,3%[46.1 µM],-1%,-0.2%,0%,11%,u
O=C(NCC1CCN(Cc2ccccc2Cl)CC1)Nc1ccccc1F,2%,-2%,17%,x,x,-1%,-19%,24%
Nc1ccc(Oc2ccc3nc(-c4ccccc4)c(-c4ccc([N+](=O)[O-])cc4)nc3c2)cc1,4%,6%,-24%,16µM*,6.3%,-11%,-15%,u
COc1ccc2nc(SC)c(C#N)cc2c1,0%,3%,u,x,x,-2%,23%,16%
CN(C)S(=O)(=O)c1ccc(S(=O)(=O)NC2CCOC(C)(C)C2)cc1 (configuration not stated),0%,14%,-17%,-7%,1.9%,2%,x,14%
CCOC(=O)N1CCc2c(sc3c2c(=O)n(-c2ccccc2)c(=O)n3CC(=O)Nc2ccc(OC)cc2OC)C1,x,x,-3%[46.1 µM],2%,0.0%,x,u,u
COc1ccc2c(c1)c(C(=O)N/N=C/c1cccc(O)c1)c(C)n2C,-2%,1%,4%,-8%,-7.3%,-12%,2%,4%
CC(C)(C)C(=O)O/N=C(\N)c1ccc(-c2csnn2)cc1,-1%,-6%,7%[46.1 µM],x,x,0%,57%[activator],u
CC(=O)Nc1ccc(C)cc1,-6%,2%,x,0%,1.4%,x,-25%,x
CC(SCC(=O)Nc1ccccc1)c1nc2ccccc2c(=O)[nH]1 (configuration not stated),4%,-6%,u,x,x,4%,-14%,1%
COc1ccc2[nH]cc(CCNCc3cccnc3)c2c1,-6%,-6%,x,x,x,18%,0%,x

# Complete entries from above. Order of screens: SARS PLP yeast	RE007 growth inh	MARV entry inh	Cruzain inh noDet	Cruzain Triton	NS1 function inh	StopGo reporter	Lassa entry inh
# CC(SCC(=O)Nc1ccccc1)c1nc2ccccc2c(=O)[nH]1 (configuration not stated) reads 4%	-6%	u	x	x	4%	-14%	1%
# O=C(NCC1CCN(Cc2ccccc2Cl)CC1)Nc1ccccc1F reads 2%	-2%	17%	x	x	-1%	-19%	24%

# More structures
SMILES,SARS PLP yeast,RE007 growth inh,MARV entry inh,Cruzain inh noDet,Cruzain Triton,NS1 function inh,StopGo reporter,Lassa entry inh
CC(C)c1ccccc1NC(=O)COC(=O)c1ccc(Cl)c(S(=O)(=O)N2CCCCCC2)c1,7%,9%,-14%,11%,-3.7%,-13%,-9%,-2%
COc1ccccc1C(=O)Nc1ccccc1SCc1cc(=O)c2ccccc2[nH]1,x,x,x,-12%,2.7%,x,29%,2%[46.1 µM]
CCOc1ccc(C(=O)C(c2ccccc2)N2CCOCC2)cc1 (configuration not stated),-6%,22%,7%,9%,-6.7%,-16%,-3%,-6%
O=C(NC1CCS(=O)(=O)C1)c1cccc(S(=O)(=O)N2CCOCC2)c1 (configuration not stated),4%,-3%,14%,-4%,7.3%,4%,x,20%
Nc1ccc(Br)cc1C(NCC(=O)O)c1ccccc1 (configuration not stated),0%,9%,-19%[46.1 µM],x,x,x,9%,3%
CC(=O)c1cccc(S(=O)(=O)NC(C)C2CC3CCC2C3)c1 (configuration not stated),-1%,22%,-14%[46.1 µM],x,x,1%,3%,7%
Cc1nc2nc(C)c(NS(=O)(=O)c3ccc(Cl)s3)c(=O)n2[nH]1,-4%,-13%,20%[46.1 µM],x,x,-1%,-7%,8%
Cc1c(C(=O)Nc2cccc(C(F)(F)F)c2)sc2nc3n(c(=O)c12)CCCC3,x,x,x,0%,-6.6%,x,18µM*,18%[46.1 µM]
COc1ccc(S(=O)(=O)NCCCN2CCOCC2)cc1F,1%,-5%,x,x,x,-2%,-22%,x
O=C(COC(=O)C1CCC(=O)N1)Nc1ccc(Oc2ccccc2)cc1 (configuration not stated),1%,-10%,-3%[46.1 µM],x,x,-1%,22%,6%
C=CCNc1nc(NCc2ccccc2)c(C#N)c2c1CN(C)CC2,-3%,5%,u,3%,-5.5%,-7%,u,2%
Cc1nc2nc(-c3ccco3)nn2c(C)c1Cl,0%,-16%,u,-8%,-3.2%,4%,17%,0%
CC(C)=C(C#N)c1nc2ccccc2s1,-4%,-11%,2%,-5%,-6.9%,-8%,x,18%
COc1cccc(/C=C2\N=C(c3cncc(Br)c3)OC2=O)c1,u,2%,-4%,-22%,-23%,8%,-7%,22%
Cc1ccccc1CN1C2=NCCCN2c2ccccc21,-1%,3%,u,-14%,1.8%,-7%,-12%,-11%
